KCNQ2 pot = enhances the rat KCNQ2 potassium channel; CHO-K1 KCNQ2, FluxOR thallium flux fluorescence; active compounds read high; B-score at 10 µM; 0.54% of 310,000 active; AID 2239;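 active = fluorescence ratio B-score at least 3 SD of library B-scores, with initial fluorescence B-score within 3 SD, cut at about 5.3 in these data; same plate scores as AID 2156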;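 also: B-score of peak minus minimum over baseline fluorescence ratio after K+ and Tl+ stimulus; positive B-score means potentiation of KCNQ2 with more thallium influx and brighter signal; only the inactives scoring about 0 or higher are listed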
Target sequence (O88943 whole entry, looked up): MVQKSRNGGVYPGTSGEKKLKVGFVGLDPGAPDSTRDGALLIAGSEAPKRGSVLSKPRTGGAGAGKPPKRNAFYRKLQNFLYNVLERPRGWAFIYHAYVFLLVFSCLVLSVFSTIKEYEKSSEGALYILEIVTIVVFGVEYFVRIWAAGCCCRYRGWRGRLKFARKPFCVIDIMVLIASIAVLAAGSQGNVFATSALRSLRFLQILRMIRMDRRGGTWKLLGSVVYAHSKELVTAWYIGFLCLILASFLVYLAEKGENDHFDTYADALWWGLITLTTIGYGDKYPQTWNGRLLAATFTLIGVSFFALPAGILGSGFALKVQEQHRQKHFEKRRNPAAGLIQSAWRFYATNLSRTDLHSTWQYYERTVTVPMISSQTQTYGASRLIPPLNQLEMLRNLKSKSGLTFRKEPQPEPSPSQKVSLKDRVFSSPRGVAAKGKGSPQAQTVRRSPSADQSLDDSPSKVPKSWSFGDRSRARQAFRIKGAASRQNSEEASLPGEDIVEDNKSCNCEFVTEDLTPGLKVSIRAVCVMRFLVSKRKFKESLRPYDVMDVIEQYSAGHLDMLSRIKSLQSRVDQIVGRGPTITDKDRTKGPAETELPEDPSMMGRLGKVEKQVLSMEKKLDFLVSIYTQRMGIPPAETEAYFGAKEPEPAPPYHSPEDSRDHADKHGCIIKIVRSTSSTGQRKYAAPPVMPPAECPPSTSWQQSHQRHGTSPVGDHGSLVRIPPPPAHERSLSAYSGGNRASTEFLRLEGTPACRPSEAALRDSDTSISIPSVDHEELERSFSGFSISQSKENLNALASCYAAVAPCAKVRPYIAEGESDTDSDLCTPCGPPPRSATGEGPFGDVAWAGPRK
KCNQ2 pot baseline = recorded beside KCNQ2 pot, whose call it bears; B-score; compound at 10 µM; measured here: initial fluorescence intensity artifact check;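 brightness before thallium and not channel activity; 0 = typical well and far values either way flag optical interference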
Numbers without * were called inactive. A portion of the library; the hit share may differ from the screen's.

KCNQ2 pot	KCNQ2 pot baseline	compound
0.51	-2.3	CCCCCNC(=O)Cc1cc(=O)[nH]c(=O)[nH]1
0.58	-3.1	CCOC(=O)CSc1nnc(NC(=O)c2cccc(S(=O)(=O)N3CCCCC3)c2)s1
0.33	0.11	N#CCc1nc(CSc2nc3ccccc3s2)cs1
0.6	-0.58	Cc1cccc(NC(=O)/C(C#N)=C/c2ccc(Cl)cc2)n1
0.11	-1.4	CN(CC(=O)Nc1ccc(N2CCOCC2)cc1)C(=O)C1CCCC1
0.98	0	CSCCC(NC(=O)c1ccccc1Cl)C(=O)OCC(=O)N1CCCC1=O (centres undefined)
1.2	-0.44	CSc1ccccc1NC(=O)c1c(C)noc1C
0.04	-0.44	O=C(c1ccc(Cl)c(S(=O)(=O)N2CCCCCC2)c1)N1CCN(c2ccccc2O)CC1
2.1	-1.3	CC1CCN(CCC(=O)Nc2ccc3c(c2)CCC3)CC1
1.2	-0.69	COC(=O)C1=C(C)NC(=O)C1(Nc1ccc(Cl)cn1)C(F)(F)F (centres undefined)
1.7	-1.7	COC(=O)C1=C(C)NC(C)=C(C(=O)OC)C1C(=O)OCC(=O)c1ccc(F)cc1
0.01	-1	CC(=O)N=Nc1[nH]c(N)c2ccccc12
0.04	0.11	COC(=O)C1(Cc2ccc(O)c(CC3OC3(C)C)c2)OC(=O)C(O)=C1c1ccc(O)cc1 (centres undefined)
2.2	0.51	O=C(NCCc1c[nH]c2ccccc12)C(F)(F)F
1.8	-0.61	Nn1c(SCc2ccc(F)cc2)nnc1-c1ccncc1
0.22	-1.2	O=C(O)CN1C(=O)/C(=C\C(Br)=C\c2ccccc2)SC1=S
0.94	1.1	O=C(NCc1cccs1)C12CC3CC(CC(C3)C1)C2
0.6	-1.4	COc1cc(C(C)=O)ccc1OC(=O)C(C)N1C(=O)c2ccccc2C1=O (centres undefined)
0.35	0.13	CC1CC(=O)N(CC(=O)N2CCCC2)c2ccccc2S1 (centres undefined)
1.3	0.23	O=C(c1cnn2c(C(F)F)cc(C3CC3)nc12)N1CCOCC1
1.1	0.92	COc1ccc(O)c(/C=C(\C#N)C(=O)Nc2cccnc2)c1
8.4*	2.5*	Oc1c(Br)cc(Cl)cc1C=Nc1ccccc1Br
4.5	0.08	Cc1cccc(CN2C[C@]34CC[C@@H](C[C@@H]3S2(=O)=O)O4)c1
0.38	-1.8	COC(=O)C1Sc2[nH]c(=O)sc2C(c2ccc(Cl)cc2)C1C(=O)OC (centres undefined)
1.1	-0.24	COc1cc(C2C(C#N)=C(N)OC3=C2C(=O)CC(C)(C)C3)ccc1OC(=O)N1CCOCC1 (centres undefined)
3.2	-0.78	O=c1c2c(nc3n1CCCCC3)sc1c(O)c(Br)ccc12
0.12	0.6	COc1ccc(-c2nnc(SCC(=O)N/N=C/c3ccccc3C(=O)O)n2-c2ccccc2)cc1
0.19	-0.65	CC(=O)Nc1ccc(OCC(O)CN2CCCCC2C)cc1 (centres undefined)
1.6	-1	COc1ccc(Cl)cc1NC(=O)Nc1ccccc1C(N)=O
0.45	0.03	CC(C)Oc1ccc(CN2CCC(n3nccc3NC(=O)C3CC3)CC2)cc1

3 entries out of the list, ordered by heavy-atom count, falling.
KCNQ2 pot	KCNQ2 pot baseline	compound
0.12	0.6	COc1ccc(-c2nnc(SCC(=O)N/N=C/c3ccccc3C(=O)O)n2-c2ccccc2)cc1
1.1	-0.24	COc1cc(C2C(C#N)=C(N)OC3=C2C(=O)CC(C)(C)C3)ccc1OC(=O)N1CCOCC1 (centres undefined)
8.4*	2.5*	Oc1c(Br)cc(Cl)cc1C=Nc1ccccc1Br

Carrying on:
KCNQ2 pot	KCNQ2 pot baseline	compound
0.54	-0.19	CCCCNC(=O)CSc1nnc(NC(C)=O)s1
2.2	-0.2	COc1cc(Cl)ccc1OCc1cc(C(=O)N[C@H]2CCCCNC2=O)no1
1.2	-0.02	O=C(NCc1cccnc1)C(=O)Nc1nc(C23CC4CC(CC(C4)C2)C3)cs1
0.19	1.1	CC1C(c2ccccc2)=NNc2nc3c(c(=O)n(C)c(=O)n3C)n21 (centres undefined)
1.1	-0.62	N#CCCn1cc(C(=O)O)c(-c2ccc3ccccc3c2)n1
0.06	-1.4	CN1C(=O)C(O)(CC(=O)c2cccs2)c2ccccc21 (centres undefined)
0.47	-1.6	O=C(CN1C(=O)NC2(CCCC2)C1=O)OCc1cc(=O)n2cc(Br)ccc2n1
0.43	0.5	CCSC1=N/C(=C\c2ccccc2)C(=O)N1
1.9	1.8	CCOC(=O)c1ccc(NC(=O)CSc2nnnn2C2CCCCC2)cc1
0.56	-0.96	CCN(CC)Cc1c(O)ccc2c([N+](=O)[O-])c(C)n(-c3ccc(OC)cc3)c12
1.4	-1.8	Cc1ccc(S(=O)(=O)N(C)CC(=O)N2CCCc3ccccc32)cc1
1.9	-0.57	Cc1cc(C)cc(N(C(=O)c2csnn2)C(C(=O)NC2CCCCC2)c2ccncc2)c1 (centres undefined)
0.07	-0.31	Cc1ccc(-c2cnc(-c3ccccc3C(=O)O)o2)cc1
0.06	-0.73	NC(=S)N=Nc1c(O)n(CCCl)c2ccccc12
1.9	0.1	O=C(N/N=C/c1ccsc1)c1cc2ccccc2o1
0.02	1.1	COCCNC(=O)NC(=O)COC(=O)C1(c2ccc(Cl)cc2)CC1
1	-0.55	Cc1nc(N2CCN(S(=O)(=O)c3ccc(F)cc3)CC2)c2c(-c3cccs3)csc2n1
0.94	0.12	O=C(O)CCc1nc2cc(C(F)(F)F)ccc2n(Cc2ccccc2)c1=O
1.1	-0.94	COc1cccc(C(=O)Nc2ccccc2)c1
1.7	0.87	CCNc1nc(NCC)nc(NS(=O)(=O)c2ccc(N)cc2)n1
1.3	1.5	Cc1ccc(S(=O)(=O)N2CCN(C(=O)COC(=O)c3oc4ccccc4c3C)CC2)cc1
1.1	-0.02	CC(C)CNC(=O)C1Nc2ccc(C(F)(F)F)cc2C2C=CCC12 (centres undefined)
2.3	0.21	CN1N=C(C(=O)Nc2ccc3c(c2)CCC3)CCC1=O
0.5	-0.64	CN(CC(=O)NCCc1ccccc1)S(=O)(=O)c1cccc2nsnc12
1.6	-0.4	CCCn1ncc2c(Nc3ccc(C)c(C)c3)ncnc21
1	0.57	CC1CCc2c(sc(NC(=O)c3c([N+](=O)[O-])cnn3C)c2C(N)=O)C1 (centres undefined)
1.2	0.63	COc1cc(/C=C2\C(=N)N3N=C(C(C)C)SC3=NC2=O)ccc1OCCOc1ccc(NC(C)=O)cc1
1.6	-1.2	COc1ccc(C2=C/C(=C\c3ccc(OC(C)=O)cc3)C(=O)O2)cc1
0.45	0.01	Cc1ccc(N(Cc2ccc(C(=O)NC3CCCCC3)cc2)S(C)(=O)=O)cc1C
0.7	-1.5	COc1ccccc1NS(=O)(=O)c1cc(NC(=O)c2ccc(=O)[nH]c2)ccc1N1CCOCC1

Profiles as entered above. Values in the order: KCNQ2 pot | KCNQ2 pot baseline
COc1ccccc1NS(=O)(=O)c1cc(NC(=O)c2ccc(=O)[nH]c2)ccc1N1CCOCC1 is entered as 0.7 | -1.5
COc1cccc(C(=O)Nc2ccccc2)c1 is entered as 1.1 | -0.94
Cc1ccc(N(Cc2ccc(C(=O)NC3CCCCC3)cc2)S(C)(=O)=O)cc1C is entered as 0.45 | 0.01
Cc1nc(N2CCN(S(=O)(=O)c3ccc(F)cc3)CC2)c2c(-c3cccs3)csc2n1 is entered as 1 | -0.55
CC(C)CNC(=O)C1Nc2ccc(C(F)(F)F)cc2C2C=CCC12 (centres undefined) is entered as 1.1 | -0.02

Given with each value named: part of the list above
canonical_smiles: COc1ccccc1NS(=O)(=O)c1cc(NC(=O)c2ccc(=O)[nH]c2)ccc1N1CCOCC1
  KCNQ2 pot: 0.7	KCNQ2 pot baseline: -1.5
canonical_smiles: COCCNC(=O)NC(=O)COC(=O)C1(c2ccc(Cl)cc2)CC1
  KCNQ2 pot: 0.02	KCNQ2 pot baseline: 1.1

Following part
KCNQ2 pot	KCNQ2 pot baseline	compound
4.1	0.49	Cc1ccc(S(=O)(=O)NC(=S)NC2CCCCC2)cc1
1.5	-1.7	Cn1c(=O)c2cc(S(=O)(=O)NCCC(=O)NC3CCCCCCC3)ccc2n(C)c1=O
1.6	-0.77	CCN(C(=O)c1ccco1)c1nnc(-c2cccnc2)s1
0.1	0.64	Cn1c(=O)oc2cc(S(=O)(=O)NCCC(=O)N3CCN(c4ccccc4F)CC3)ccc21
0.28	-2.5	Cc1ccc(NC2=CC(=O)CC(C)(C)C2)cc1F
1.4	-0.52	COc1ccc(NC(=O)c2ccc(NC(=O)C3CC3)cc2)cc1
0.58	0.84	CC[C@@H](C)[C@H](NC(=O)C1CCN(C(=O)[C@@H](NS(=O)(=O)c2ccc(C)cc2)C(C)C)CC1)C(=O)O
1.2	-0.02	COc1cccc(NC(=O)C2CCN(S(=O)(=O)c3ccc4c(c3)CC(C)N4C(C)=O)CC2)c1 (centres undefined)
1.6	-0.86	CCOC(=O)c1c(NC(=O)COC(=O)c2nc(Cl)ccc2Cl)sc(C(=O)N(C)C)c1C
0.08	0.19	Cc1c(C(=O)NCc2cccnc2)sc2nc(-c3ccc(F)cc3)cn12
0.69	1.1	CC1(C)C(=O)Nc2ccccc2N1C(=O)COC(=O)COc1ccc(C#N)cc1
1.9	-0.99	NC(=O)c1ccc(NC(=O)c2cccc3c2OCCCO3)cc1
0.66	0.23	O=C(C1CCN(S(=O)(=O)c2cc(Cl)ccc2Cl)CC1)N1CCCC1
0.77	-1.7	O=C(c1cc2nc(-c3ccccc3)cc(C(F)(F)F)n2n1)N1CCN2CCCC2C1 (centres undefined)
0.06	-1.4	COc1ccc(OC)c(NC(=O)c2cc(-c3cc(C)ccc3O)n[nH]2)c1
0.45	-0.13	Cc1ccc(-c2ccc3nnc(SCC(=O)NCC4CCCO4)n3n2)cc1 (centres undefined)
0.15	-1.4	O=C(NCc1cccnc1)c1ccc(COc2cccc3ccccc23)o1
0.2	-1.5	COc1ccc(C2=NNC(c3cccnc3)=Nc3ccccc32)cc1
0.06	0.29	COc1cc2ccccc2cc1C(=O)NC(=S)Nc1cccc(C(=O)O)c1C
0.79	2.3	N#Cc1nc(-c2cccs2)oc1NCc1ccc(Cl)cc1
0.75	-0.14	CCOC(=O)/C(C#N)=C/Nc1ccccc1NS(=O)(=O)c1ccc(C)c(C)c1
0.4	0.63	Fc1ccc2c(c1)C(c1ccncc1)=NNC(c1ccc(Br)cc1)=N2
0.23	0.04	O=C(O)CCCn1c(=O)c2cccn2c2ccc(F)cc21
1.1	1	CCOc1ccc2oc(C(=O)N(C)CC(=O)Nc3ccc(OCC)c(OCC)c3)c(C)c2c1
0.02	-0.03	O=C(NNC(=S)NC1CCCCC1)c1cccs1
2.3	1.3	Cc1oc2ccc(OCc3ccccc3F)cc2c1C(=O)O
0.53	1.6	CC(OC(=O)C1CC1)C(=O)Nc1cc(C(F)(F)F)ccc1Cl (centres undefined)
0.41	0.04	CCC1=C(OC(=O)N(CC)CC)N2C(=O)OC(=NCC3CC3)[C@]2(Cc2ccccc2)[C@H]2C1=CC[C@H]1C(=O)N(CC(=O)OC)C(=O)[C@H]12
1.5	-1.6	O=c1cc(O)c2sc(Nc3ccc(F)c(Cl)c3)nc2[nH]1
0.55	-1.1	CC(C)c1ccc(N(CC(=O)NCC2CCCO2)C(=O)CCC(=O)Nc2nccs2)cc1 (centres undefined)
1.4	0.11	Cc1ccc2nc(SC(C(=O)Nc3ccc(F)cc3)c3ccccc3)[nH]c2c1 (centres undefined)
1.8	-0.12	CC1=CC(C)(C(Cl)Cl)C(C)=CC1=O (centres undefined)
0.02	1.6	Cc1ccc(CNC(=O)CN(C2CCCCC2)S(C)(=O)=O)cc1
0.36	-0.3	Cc1cc(C)c(OCC(=O)OCC(=O)N2CCc3ccccc3C2)c(C)c1
0.02	1.3	O=C(CCC(=O)N1CCN(c2ccc(F)cc2)CC1)c1ccc(F)cc1
0.19	-1	CCc1nc(N=Nc2c(O)[nH]c3ccccc23)c2c3c(sc2n1)CCC3
0.19	-1.6	NS(=O)(=O)c1ccc(-c2ccc(C=NC3CCS(=O)(=O)C3)o2)cc1 (centres undefined)
1.6	0.04	Cc1cc(C)n2nc(SCc3ccccc3)nc2n1
1.3	-0.86	O=C(Nc1ccccc1Cl)N1CCN(c2ccccn2)CC1
0.99	0.72	CC(NC(=O)C(C)N1C(=O)C2C3CC(C(Br)C3Br)C2C1=O)c1ccccc1 (centres undefined)
1	-0.59	Cc1ccc2[nH]c3c(=O)n(N)c(C)nc3c2c1
0.46	-1.3	CN(c1ccccc1)c1nc(N)c([N+](=O)[O-])c(NC2CCCCC2)n1
0.47	1.1	CC(Sc1nc2ccccc2o1)C(=O)O (centres undefined)
1.5	0.2	CC(C)c1nnc(NC(=O)CS(=O)(=O)c2ccccc2)s1
0.4	-0.42	O=c1[nH]c(SCc2cccc(F)c2)nc2ccccc12
0.02	-0.51	O=C(NCC(c1ccco1)N1CCN(c2ccc(F)cc2)CC1)C1CCCCC1 (centres undefined)
3.3	1.1	NC(=O)c1ccc(NC(=O)C2CCCO2)cc1 (centres undefined)
0.7	-2.1	CCc1noc(C)c1C(=O)OCC(=O)Nc1c(F)cccc1F
1.1	0.99	COc1cc2nc(-c3ccccc3C)oc(=O)c2cc1OC
0.19	-1.1	CCOCC(=O)Nc1ccccc1C(=O)OCC
1.4	0.79	Clc1cc2c(nn1)Nc1ccccc1S2
2.5	-0.98	COc1ccc(N(CC(=O)NC2CC3CCC2C3)S(=O)(=O)c2ccc(C)cc2)cc1OC (centres undefined)
1.1	-0.64	O=C(CSc1nnc(CNc2ccc(F)cc2)n1Cc1ccccc1)N1CCOCC1
0.06	0.01	Cc1ccc(N2CC(C(=O)Nc3nnc(C(C)C)s3)CC2=O)cc1 (centres undefined)
0.26	-0.61	CC(C)C(=O)Nc1ccc(C(=O)NNC(=S)NC(=O)c2ccco2)cc1

Screening data deposited in PubChem BioAssay by Johns Hopkins Ion Channel Center.
